TRPML1 agonist: agonists of human TRPML1 channel; TRPML1-expressing cells, Ca2+ dye fluorescence, FDSS; host cell line not named in the record; reference of the full effect not given here; activation, % (no concentration beside the values); 410,000 compounds, 0.12% hits; AID 624414; in the data active = activation above about 50%; inconclusive = about 30% to 50%; inactive = below about 30%; note: 0% is about no effect; the text of the record puts the active cut at 80%
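Calcium fluorescence on an FDSS kinetic reader gave the read-out. Tet-induced TRPML1-DL cells were plated overnight, dye-loaded (Ca8 with quencher, 45-90 min, room temperature, dark), then read 110 s after compound addition, and again 110 s after 4uM final 54-4 (EC80).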
Six1-Eya2 blk: blocks human Six1 binding to Eya2 | Q15475+O00167 | AlphaScreen GST-Six1/His-Eya2 binding, biochemical; active compounds read low; control for the full effect not named in the record | activity change, % (test concentration not listed) | 360,000 compounds, 0.56% hits; in the data active = activity change below about -65%; inconclusive = about -30% to -65%; inactive = above about -30%; note: % is set by controls: 0 for no effect and ±100 for the full control effect
Target sequence (O00167 whole entry, looked up): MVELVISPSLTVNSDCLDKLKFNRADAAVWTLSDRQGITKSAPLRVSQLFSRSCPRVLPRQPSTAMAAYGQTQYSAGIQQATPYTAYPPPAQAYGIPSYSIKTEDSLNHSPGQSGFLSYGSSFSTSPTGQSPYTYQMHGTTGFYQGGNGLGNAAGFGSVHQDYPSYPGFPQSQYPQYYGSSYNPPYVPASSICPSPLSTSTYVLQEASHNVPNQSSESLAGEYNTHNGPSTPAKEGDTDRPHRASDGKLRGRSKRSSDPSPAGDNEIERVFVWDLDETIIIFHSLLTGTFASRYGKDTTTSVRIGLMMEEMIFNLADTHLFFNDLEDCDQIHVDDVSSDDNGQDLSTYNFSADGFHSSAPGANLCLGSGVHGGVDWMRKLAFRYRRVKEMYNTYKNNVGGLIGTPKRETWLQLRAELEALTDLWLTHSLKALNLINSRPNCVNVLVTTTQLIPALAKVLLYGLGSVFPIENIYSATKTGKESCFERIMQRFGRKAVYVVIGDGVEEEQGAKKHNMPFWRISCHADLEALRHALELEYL
Target sequence (Q15475 whole entry, looked up): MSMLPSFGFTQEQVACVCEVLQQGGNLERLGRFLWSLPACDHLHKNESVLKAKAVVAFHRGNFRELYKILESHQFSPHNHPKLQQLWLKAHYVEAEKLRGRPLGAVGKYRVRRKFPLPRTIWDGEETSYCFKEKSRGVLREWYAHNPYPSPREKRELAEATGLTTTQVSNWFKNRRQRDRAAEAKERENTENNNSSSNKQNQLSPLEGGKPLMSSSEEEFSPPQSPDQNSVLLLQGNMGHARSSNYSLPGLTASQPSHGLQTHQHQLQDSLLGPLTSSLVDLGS
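Six1/Eya2 binding was read as AlphaScreen signal after compounds were pinned into GST-Six1 plus His-tagged Eya2 (5X stock 250/500 nM) in pH 8.0 Tris/NaCl/TCEP buffer, beads added, then incubated 1 h, 37 C, dark.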
PINK1 expr mod: changes PINK1 expression. PINK1 immunofluorescence, high-content cytometry, 24 h. Potency, µM (titrated, usually from 76.6 µM), inactives show top-dose activation (PINK1 increase), hits mostly activators. 410,000 compounds, 0.2% hits. AID 624263; active = well fitted activation curve with a large enough effect; inconclusive = small, poorly fitted or top-dose-only effect; inactive = flat fitted curve, though single readings scatter; cell line not stated here;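 note: potency is the fitted concentration of half-maximal effect; % of control where 0% means no effect; nearly all actives have a fitted effect of over 65% in size; a mitochondrial uncoupler was the plate control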
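Cells are seeded, rested 12 hours, then given compound at five concentrations or DMSO for 24 hours. After fixation, blocking and antibody staining, PINK1 amount and mitochondrial localization are scored; CCCP serves as control.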
D2 agonist: activates the human D2 dopamine receptor. P14416. DiscoveRx PathHunter D2 beta-arrestin, luminescence, 90 min; 100% = 57 uM dopamine signal. activation, % (test concentration not listed). 360,000 compounds, 0.084% hits. AID 624465; in the data active = activation above about 40%; inconclusive = about 15% to 40%; inactive = below about 15%; note: compound concentration not given in the record; the text of the record calls up to 30% inactive
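DiscoveRx PathHunter D2 beta-arrestin cells (2,100/well) attached overnight, then compound-stimulated 90 min at 37 C in HBSS/10 mM HEPES/0.1% Tween-20 buffer; beta-galactosidase complementation read by luminescence after 1 h at ambient temperature. Dopamine 57 uM final (EC100) as control.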
CtBP-E1A blk: inhibitors of CtBP/E1A interaction; AID 651724; 340,000 compounds, 0.49% hits; AlphaScreen GST-E1A/His-CtBP binding, 1536-well; active compounds read low; control for the full effect not named in the record; activity change, % (concentration not given with the values); in the data active means activity change below about -65%; inconclusive means about -30% to -65%; inactive means above about -30%; note: % is set by controls: 0 for no effect and ±100 for the full control effect
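In 5 uL wells, 23 nL compound meets equimolar GST-E1A and His-CtBP (5X stock 125 nM each) for 2 h, 37 °C. Beads (5X, 50 ug/mL) then 1 h, 37 °C, dark.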
D2 PAM: potentiates the human D2 dopamine receptor allosterically. P14416. DiscoveRx D2 beta-arrestin cells, luminescence, 90 min; 100% = 57 uM dopamine signal. potentiation, % (concentration not given with the values). 360,000 compounds, 0.23% hits. AID 624464; active = potentiation of 50% or more; inconclusive = 30% to 50%; inactive = 30% or less;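 note: tested on top of an EC20 dose of dopamine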
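D2 cells co-treated with compound plus 50 nM dopamine (EC20) for 90 min at 37 deg C to detect potentiation. Beta-arrestin recruitment was read as enzyme-fragment luminescence after 1 h at ambient temperature. Full response was set by 57 uM dopamine.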
* marks the source's active call; other numbers are inactive results; u = inconclusive; x = not tested or not shown; & = joins results of further samples; [ ] = another dose, or the depositor's remark.

SMILES	TRPML1 agonist	Six1-Eya2 blk	PINK1 expr mod	D2 agonist	CtBP-E1A blk	D2 PAM
Cc1cccc(C)c1NC(=O)C(=O)NCCCN1CCOCC1	0.7	-3	2.4%	-5.9	6	18
COc1ccc(N(CC(=O)NCCC2=CCCCC2)S(C)(=O)=O)cc1	-0.4	3	7.0%[38.3 µM]	-1.1	0	-2
CN(C(=O)CCc1nc(-c2ccccc2F)no1)c1ccccc1	x	1	0.8%	1.4	-13	1
COc1ccc(OC)c(C(=O)NC2CCSc3ccccc32)c1 (stereo not drawn)	1.0	-6	1.6%	2.4	-8	-3
CC(=O)c1ccc(S(=O)(=O)N(C)CC(=O)Nc2cc(C)on2)cc1	-0.7	2	-0.7%	-3.9	8	-1
N#Cc1nc(COc2ccccc2Cl)oc1NCc1cccnc1	-0.8	0	2.9%[38.3 µM]	0.8	-6	4
CCOc1ccc(-n2c(SCC(=O)N3CCC(C(=O)O)CC3)nc3ccccc3c2=O)cc1	-0.7	-1	-1.2%	3.8	4	7
CCC(C)c1cc(S(=O)(=O)N2CCOCC2)ccc1OC (stereo not drawn)	3.0	9	-0.8%	-2.3	8	-10
CCOC(=O)c1c(-c2ccc(OC)cc2)csc1NC(=O)CSc1ccccc1	0.3	5	-0.9%	-2.1	9	-2
COC(=O)C(CCSC)NC(=O)c1cc2c(n(-c3ccccc3)c1=O)CC(C)(C)CC2=O (stereo not drawn)	-0.7&-0.2	1	2.4%&1.5%	-1.8	-8	-6
Cc1cccc(C(=O)N2CCC(c3nc(-c4ccc(S(=O)(=O)N5CCOCC5)cc4)no3)CC2)c1	-0.6	3	3.2%[38.3 µM]	1.7	0	-1
CCCc1nc2ccccc2c(C(=O)OCC(=O)Nc2cccc(S(=O)(=O)N3CCOCC3)c2)c1CC	5.9	-6	-3.1%	-1.1	-15	9
CCn1c(SCC(=O)N=Nc2c(O)[nH]c3ccccc23)nc2ccccc21	1.8	-13	5.8%	-2.7	-13	-13
O=Cc1c(Sc2ccccn2)nc2ccccn2c1=O	-1.1	-3	0.0%	-5.2	-2	-2
COc1ccccc1N(CC(=O)NCC1CCCO1)C(=O)CNS(=O)(=O)c1ccc(Cl)cc1 (stereo not drawn)	-0.5	3	1.7%	-5.2	x	-13
COC(=O)CCCn1cc(CN(C)C2CN(Cc3cn(CCCC(=O)OC)nn3)S(=O)(=O)C2)nn1 (stereo not drawn)	-0.6	9	0.6%	x	-1	x
Cc1c(NC(=O)CCCCCN2C(=O)c3ccccc3C2=O)c(=O)n(-c2ccccc2)n1C	0.0	1	1.5%	1.0	9	-14
O=S(=O)(NCC1CCCO1)c1ccc(S(=O)(=O)N(Cc2ccc(F)cc2)Cc2ccco2)cc1 (stereo not drawn)	3.9	-4	9.1%	2.1	-13	9
Cc1cccc(-c2nc(CC(=O)Nc3cccc(S(=O)(=O)NC4=NCCC4)c3)cs2)c1	0.6	-11	-1.3%	1.3	-16	-3
COc1ccc2ccccc2c1/C=N/NC(=S)Nc1cc(S(=O)(=O)N2CCOCC2)ccc1N1CCOCC1	0.6	-7	-2.6%	-1.7	-17	4
CCCn1c(=N)c(C(=O)NC2CCCC2)cc2c(=O)n3cccc(C)c3nc21	-0.3&-0.6	-17	-1.1%&0.4%	0.1	-14	-11
CCOC(=O)C1CCN(C(=O)C2CCN(S(=O)(=O)c3cccc4nsnc34)CC2)CC1	-0.5	2	0.9%	-2.0	10	-5
O=C(NCc1ccncc1)c1csc([C@@H]2O[C@H](CO)[C@@H](O)[C@H]2O)n1	0.1	-5	-0.6%	6.5	4	-9
Cc1ccc(NC2CCCN(C(=O)c3ccc(C)c(N4CCNC4=O)c3)C2)cc1C (stereo not drawn)	-0.4	0	-1.1%	-1.3	-5	1
COc1cc(C(=O)O)nc2ccccc12	-0.2	-11	3.3%	1.6	-7	9
CCN(CC(=O)Nc1ccccc1OC)CC(=O)Nc1c(Cl)ccc(C)c1Cl	1.2	-7	1.9%	3.8	18	-4
COc1cc2ncnc(NCc3ccccc3)c2cc1OC	-0.9	-17	-1.0%	-1.7	0	-10
CCC(CC)COC(=O)C1=C(C)NC(=O)NC1c1ccc(OC)cc1 (stereo not drawn)	-1.1	-3	0.6%	4.5	7	12
COc1ccc(C(NC(=O)c2cccc(F)c2)c2ccccc2)cc1 (stereo not drawn)	0.8	6	2.5%	-0.9	15	-3
CN1CCN(S(=O)(=O)c2ccc(NC(=O)c3ccc([N+](=O)[O-])cc3)cc2)CC1	1.1	21	2.7%	8.6	-10	12
CC(C)(C)C(=O)CSc1nc(N)cc(=O)[nH]1	-1.1	8	2.2%	-1.1	x	-6
CN(C)c1ccc(C(CNC(=O)c2ccc(F)cc2)c2c[nH]c3ccccc23)cc1 (stereo not drawn)	2.1	u	0.4%	-1.0	u	-4
CCOC(=O)c1ccc(NC2=CC(=O)CC(c3ccco3)C2)cc1 (stereo not drawn)	0.7	-14	1.1%	0.0	0	-3
CCc1nnc(NC(=O)COc2ccc3ccccc3c2)s1	1.0	6	-1.4%	-1.4	2	-3
COc1ccc(C)cc1NC(=O)C1CCC(CNc2c(N3CCOCC3)c(=O)c2=O)CC1 (stereo not drawn)	-0.6	-8	1.8%	-2.4	-4	-4
COc1cccc(CN(C(=O)c2cccc(OC)c2)C2CCS(=O)(=O)C2)c1 (stereo not drawn)	-0.8	1	1.0%	0.5	3	-6
Cc1ccc(S(=O)(=O)CC(=O)NC2CC2)cc1	0.1	-4	0.5%	-2.2	1	-14
Cc1cc(N/N=C/c2ccccc2)nc(NCc2ccccc2)n1	1.6	-9	u	-2.5	-25	-22
COc1cc(N2C(=O)C=CC2=O)c(OC)cc1Cl	2.0	-14	-0.6%	-3.6	-19	-25
Cc1cc2c(s1)c1cnn(Cc3ccccc3F)c(=O)c1n2C	2.2	-2	6.1%	-1.3	0	5

Laid out differently: five of the compounds above
compound | TRPML1 agonist | Six1-Eya2 blk | PINK1 expr mod | D2 agonist | CtBP-E1A blk | D2 PAM
CN(C)c1ccc(C(CNC(=O)c2ccc(F)cc2)c2c[nH]c3ccccc23)cc1 (stereo not drawn) | 2.1 | u | 0.4% | -1.0 | u | -4
CCOC(=O)c1ccc(NC2=CC(=O)CC(c3ccco3)C2)cc1 (stereo not drawn) | 0.7 | -14 | 1.1% | 0.0 | 0 | -3
CCc1nnc(NC(=O)COc2ccc3ccccc3c2)s1 | 1.0 | 6 | -1.4% | -1.4 | 2 | -3
COc1ccc(C)cc1NC(=O)C1CCC(CNc2c(N3CCOCC3)c(=O)c2=O)CC1 (stereo not drawn) | -0.6 | -8 | 1.8% | -2.4 | -4 | -4
COc1cccc(CN(C(=O)c2cccc(OC)c2)C2CCS(=O)(=O)C2)c1 (stereo not drawn) | -0.8 | 1 | 1.0% | 0.5 | 3 | -6

(continued)
SMILES	TRPML1 agonist	Six1-Eya2 blk	PINK1 expr mod	D2 agonist	CtBP-E1A blk	D2 PAM
Cc1ccc(C(=O)COC(=O)CNC(=O)COc2ccccc2C)cc1C	-0.4&2.5	-2	1.5%&1.8%	-1.0	1	-9
O=C(COC(=O)C12CC3CC(CC(O)(C3)C1)C2)Nc1ccc(OC(F)F)cc1	0.0	11	4.7%	-7.3	0	30
CN1CCN(NC(=O)Nc2ccc(F)cc2)CC1	-0.9	-1	-0.6%	-2.8	1	4
CCN1CCN(C(=S)c2ccc(-c3ccccc3)cc2)CC1	1.7	-4	2.1%	-0.5	-18	-5
CN1C(=O)C(CC(=O)NCCc2ccccc2)N(NC(=O)c2cccc(F)c2)C1=S (stereo not drawn)	-1.4	-27	1.6%	-7.8	0	-14
Nc1n[nH]c(C2CC2)c1N=Nc1ccc(Cl)c(Cl)c1	0.3	-15	-1.1%	1.3	-2	-11
COCCCNC(=O)c1cc(S(=O)(=O)N2CCOCC2)ccc1SCc1cccc(OC)c1OC	1.9	14	0.9%	4.2	-11	0
COc1ccc(-n2ncc(C(C)NS(=O)(=O)c3cc(C)sc3C)c2C)cc1 (stereo not drawn)	-0.6	-4	2.4%	-4.8	-20	-13
COc1cc(OC)nc(C(NC(=O)C2CCN(Cc3ccc(Oc4ccccc4)cc3)CC2)c2ccccc2C)n1 (stereo not drawn)	-0.4	-17	12%	-1.1	-13	-15
Cc1ccc(S(=O)(=O)c2nnn3c2nc(N2CCC(C(N)=O)CC2)c2ccccc23)cc1	-0.1	-25	1.4%	-4.9	u	-12
COC(=O)[C@@]1(Cc2ccccc2)[C@H]2C(=O)N(Cc3ccccc3)C(=O)[C@H]2[C@H]2CN=C(SCC3CC3)N21	4.1	-7	-0.1%	-0.4	-4	-6
O=C(NC1CCCC1)C(c1cccs1)N(C(=O)c1ccco1)c1ccc2c(c1)OCCO2 (stereo not drawn)	-0.2	13	0.8%	-1.9	-1	7
CCCSc1cc(=O)n(-c2ccccc2)nc1C(=O)OCC	-0.2	-1	0.6%[38.3 µM]	-0.3	1	6
COc1ccc(Cn2c(=O)[nH]c3cc(C(=O)NCc4ccc5c(c4)OCO5)ccc3c2=O)cc1	-0.1	3	2.9%	-4.1	6	16
CN1CCC(N2CCN(C3CN(Cc4cn(Cc5ccc(C(F)(F)F)cc5)nn4)S(=O)(=O)C3)CC2)CC1 (stereo not drawn)	-0.6	0	-0.3%	x	5	x
COc1cccc(NC(=O)C2CCN(S(=O)(=O)c3ccc(N4CCCC4=O)cc3)CC2)c1	-0.3	-14	2.7%	2.0	5	-21
COc1ccc(NC(=O)CSc2ccc3nnc(-c4cccnc4)n3n2)c(OC)c1	0.0	u	2.5%	-1.3	-68*	7
C=C(NC(C)=O)c1c(F)cccc1F	0.1	5	0.7%	-2.5	5	-3
CC(C)N1CCN(Cc2nc3ccccc3s2)CC1CCO (stereo not drawn)	-0.5	10	0.6%	-4.3	1	-9
CSC[C@H]1CN(CCc2ccccc2)C(=O)[C@@H]1CC(=O)Nc1ccccc1	0.1	6	1.0%	-6.1	-4	-2
Cc1ccc(-c2nc(N)n(C(=O)c3ccco3)n2)cc1	-0.2	3	0.9%	-3.8	7	-12
C[C@@H]1CN([C@H](C)CO)C(=O)CCCn2nncc2CO[C@@H]1CN(C)S(=O)(=O)c1ccccc1	-0.1	5	1.2%	-11	7	-2
Cc1cccc(N2CCN(C(=O)CCc3nc4ccccc4[nH]3)CC2C)c1 (stereo not drawn)	-0.3	-7	-0.4%	2.1	0	-12
COc1ccc2[nH]c3c(c2c1)CCN1C(=O)C(CC(=O)NCCc2ccccn2)C[C@H](C(=O)N2CCOCC2)[C@@]31C (stereo partly drawn)	-0.2	-1	1.5%	-4.5	1	-6
N#CCCN(C(=O)COC(=O)c1ccc(S(=O)(=O)Nc2ccccc2)cc1)c1ccccc1	0.9	-4	5.9%	3.4	-3	12
CCN(C(=O)c1cc([N+](=O)[O-])ccc1NCc1cccnc1)c1ccccc1	0.1	-3	3.4%	3.3	-1	-4
COc1cc(/C=C2\SC(=S)N(NS(=O)(=O)c3ccc(C)cc3)C2=O)ccc1O	x	-21	-1.2%	-7.4	-26	-17
CN(C(=O)c1ccncc1)c1nnc(-c2ccccn2)s1	0.1	-4	1.7%	2.1	-2	9
